Bioassay records: PubChem, National Center for Advancing Translational Sciences (NCATS)
CtBP-E1A inh: qHTS Assay for Inhibitors of the CtBP/E1A Interaction; AID 651724, 2012; activity change, % (test concentration not listed); CtBP / adenovirus E1A interaction (AlphaScreen); actives 0.49% (n = 340,000); AlphaScreen GST-E1A/His-CtBP binding, 1536-well; active compounds read low; control for the full effect not named in the record; in the data active means activity change below about -65%; inconclusive means about -30% to -65%; inactive means above about -30%; also: % is scaled to controls: 0 for no effect and ±100 for the full control effect
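Homogeneous bead-based format: GST-tagged E1A captured on glutathione donor beads, His-tagged CtBP on nickel acceptor beads; compounds precede bead addition by 2 h at 37 °C.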
TRPML1 inh: qHTS for Inhibitors of the Human Mucolipin Transient Receptor Potential 1 (TRPML1); Mucolipin-1 (Homo sapiens), Q9GZU1; TRPML1-inducible cells, Ca2+ dye fluorescence, FDSS; active compounds read low; inhibition of EC80 agonist-evoked calcium signal; activity change, negative = inhibition, % (test concentration not listed); actives 0.02% (n = 390,000); AID 624415, 2012; in the data active means activity change below about -50%; inconclusive means about -30% to -50%; inactive means above about -30%;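 also: stimulus is agonist 54-4 at its EC80 concentration; % is scaled to controls: 0 for no effect and ±100 for the full control effect; compound concentration not given in the record; the text of the record puts the active cut at -80%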
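Tet-induced TRPML1-DL cells loaded with Ca8 no-wash calcium dye were read kinetically on FDSS. Compound addition was followed by EC80 agonist 54-4 (4 uM final); inhibition was read over 110 s.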
D2 agonist: Beta-Arrestin HTS for Positive Allosteric Modulators of the Human D2 Dopamine Receptor: Agonists; DiscoveRx PathHunter D2 beta-arrestin, luminescence, 90 min; 100% = 57 uM dopamine signal; activation, % (concentration not given with the values); actives 0.084% (n = 360,000); AID 624465, 2012; in the data active = activation above about 40%; inconclusive = about 15% to 40%; inactive = below about 15%; also: compound concentration not given in the record; the text of the record calls up to 30% inactive
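Agonist mode: compounds alone added to overnight-plated D2 PathHunter cells for 90 min at 37 C, with 57 uM final dopamine (EC100) defining full response. Beta-arrestin recruitment detected by chemiluminescent reagent, read after 1 h at ambient temperature.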
PINK1 modulator: A Quantitative High throughput Screen to Identify Chemical Modulators of PINK1 Expression; PINK1 immunofluorescence, high-content cytometry, 24 h; Potency, µM (series often up to 76.6 µM), for inactives: at the highest dose activation (PINK1 increase), usual class: activators; actives 0.2% (n = 410,000); AID 624263, 2012; active = well fitted activation curve with a large enough effect; inconclusive = small, poorly fitted or top-dose-only effect; inactive = flat fitted curve, though single readings scatter; cell line not stated here;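 also: potency is read from the fitted curve at half-maximal effect; % of control where 0% means no effect; nearly all actives have a fitted effect of over 65% in size; a mitochondrial uncoupler was the plate control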
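Cells are seeded, rested 12 hours, then given compound at five concentrations or DMSO for 24 hours. After fixation, blocking and antibody staining, PINK1 amount and mitochondrial localization are scored; CCCP serves as control.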
Six1-Eya2 inh: qHTS Assay for Inhibitors of the Six1/Eya2 Interaction. actives 0.56% (n = 360,000). activity change, % (concentration not given with the values). Homeobox protein SIX1 (Homo sapiens) + Protein phosphatase EYA2 (Homo sapiens), …. AlphaScreen GST-Six1/His-Eya2 binding, biochemical; active compounds read low; control for the full effect not named in the record; in the data active = activity change below about -65%; inconclusive = about -30% to -65%; inactive = above about -30%; also: % is scaled to controls: 0 for no effect and ±100 for the full control effect
Target sequence (O00167 whole entry, looked up): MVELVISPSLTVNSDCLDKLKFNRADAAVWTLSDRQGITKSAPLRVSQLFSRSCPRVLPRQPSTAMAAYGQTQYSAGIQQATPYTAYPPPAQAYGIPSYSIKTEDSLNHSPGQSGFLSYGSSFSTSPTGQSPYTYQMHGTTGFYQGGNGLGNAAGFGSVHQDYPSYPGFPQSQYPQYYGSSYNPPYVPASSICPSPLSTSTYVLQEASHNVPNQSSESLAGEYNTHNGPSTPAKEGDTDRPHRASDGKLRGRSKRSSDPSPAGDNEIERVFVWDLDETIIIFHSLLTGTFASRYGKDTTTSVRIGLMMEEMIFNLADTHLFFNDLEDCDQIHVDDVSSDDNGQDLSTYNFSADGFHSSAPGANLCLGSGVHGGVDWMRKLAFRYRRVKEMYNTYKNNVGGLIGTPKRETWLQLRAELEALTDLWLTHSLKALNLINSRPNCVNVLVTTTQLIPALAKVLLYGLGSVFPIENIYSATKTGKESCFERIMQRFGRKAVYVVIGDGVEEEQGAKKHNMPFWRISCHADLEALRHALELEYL
Target sequence (Q15475 whole entry, looked up): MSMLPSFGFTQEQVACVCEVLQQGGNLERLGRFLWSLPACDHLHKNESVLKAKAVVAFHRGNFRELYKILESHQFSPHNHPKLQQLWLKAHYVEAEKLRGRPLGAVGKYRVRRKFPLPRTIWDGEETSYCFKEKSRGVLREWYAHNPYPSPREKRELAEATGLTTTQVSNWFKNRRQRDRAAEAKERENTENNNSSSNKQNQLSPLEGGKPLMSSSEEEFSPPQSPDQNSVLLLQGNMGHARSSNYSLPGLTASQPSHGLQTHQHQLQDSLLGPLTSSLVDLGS
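Homogeneous AlphaScreen proximity assay pairing GST-Six1 with His-tagged Eya2 (added as 5X mix: 250 nM and 500 nM) in 50 mM Tris pH 8.0, 300 mM NaCl, 1 mM TCEP. Glutathione donor and nickel acceptor beads; 1 h, 37 °C, dark.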
TRPML1 ag: qHTS for Agonists of the Human Mucolipin Transient Receptor Potential 1 (TRPML1); TRPML1-expressing cells, Ca2+ dye fluorescence, FDSS; host cell line not named in the record; reference of the full effect not given here; activation, % (no concentration beside the values); AID 624414, 2012; actives 0.12% (n = 410,000); in the data active = activation above about 50%; inconclusive = about 30% to 50%; inactive = below about 30%; also: 0% is about no effect; the text of the record puts the active cut at 80%
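Kinetic FDSS Ca2+ read in Tet-induced TRPML1-DL cells (ABD Ca8 dye plus quencher, 45-90 min RT loading): baseline, then compound, then 110 s agonist window; EC80 agonist 54-4 at 4uM final added afterwards for a 110 s antagonist window.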
* hit, by the source's call; ? = inconclusive; · = not tested or not shown; & = joins results of further samples; [ ] = dose if it differs, or a comment.

SMILES | CtBP-E1A inh | TRPML1 inh | D2 agonist | PINK1 modulator | Six1-Eya2 inh | TRPML1 ag
Cc1cc(-c2ccccc2)c2nncn2n1 | 6.2 | -6.8 | 0.9 | -0.7% | 8.4 | 0.3
O=C(COc1ccc(Cl)cc1Cl)NNC(=S)NCc1ccco1 | -26.0 | -17.9 | -11.7 | 0.5% | -12.2 | 1.8
O=C(COC(=O)c1ccc2c(c1Cl)C(=O)c1ccccc1C2=O)NC1CC1 | ? | -5.2 | ? | 0.4% | ? | 0.0
O=C(/C=C/c1ccccc1)OCC(=O)N1CCCC1 | -4.7 | 4.8 | -3.7 | -1.5% | 4.8 | 0.0
S=C(NCCCN1CCOCC1)Nc1ccc(Cl)cc1Cl | 3.8 | -4.3 | 0.3 | 4.5% | 2.6 | -0.5
CCCc1ccc2oc(C(=O)N3CCN(C4CCS(=O)(=O)C4)CC3)c(C)c2c1 (configuration not stated) | 0.0 | -6.6 | -1.2 | -0.3% | 0.4 | -0.2
COc1ccc(C(=O)NCC(c2ccccc2)c2ccccc2)cc1S(=O)(=O)N1CCOCC1 | 0.4 | 0.9 | -1.7 | 0.8% | -5.9 | 4.0
Cc1cc(NC(=O)CSc2nnc(-c3ccc(Br)o3)n2Cc2ccccc2)no1 | 0.7 | 4.3 | -2.4 | -1.9% | -4.8 | 1.2
Cc1c(Cl)cccc1NC(=O)CN(C1CCCCC1)S(C)(=O)=O | -7.8 | 7.3 | -4.3 | -1.4% | 6.8 | 0.7
COC(=O)c1ccc(NC(=S)N2CCN(Cc3ccccc3Cl)CC2)cc1 | -3.1 | 33.0 | 4.1 | -1.9% | -10.6 | 1.5
Cc1nc2cc(-c3cccc(F)c3)nn2c(C)c1CCC(=O)Nc1ccccc1C(N)=O | · | -7.4 | · | 0.6% | · | -0.1
CCOc1ccccc1NC=C1C(=O)OC2(CCCCC2)OC1=O | 9.6 | 3.4 | 2.3 | · | 9.9 | 0.1
COc1ccc(OC)c(CNC(=O)CCc2cn(C)c3ccccc23)c1 | 0.0 | -6.4 | -0.5 | -0.2% | 0.0 | -0.1
CCN(CC)CC(=O)N1CCCC(C(=O)c2ccccc2OC)C1 (configuration not stated) | · | 6.6 | -1.2 | -0.8% | -1.7 | 0.4
O=CNCC(=O)NC1CCCCCC1 | 15.4 | -1.7 | -1.5 | · | 1.0 | -0.3
COC(=O)C[C@H]1c2ccc(C(F)(F)F)cc2S(=O)(=O)N1Cc1ccccc1 | 6.4 | 11.4 | -1.8 | -0.7% | 3.8 | -0.2&-0.4
CC(NS(=O)(=O)c1ccc([N+](=O)[O-])cc1)C(c1cccs1)N1CCOCC1 (configuration not stated) | 0.0 | -1.0 | 0.3 | 0.7% | 3.2 | 1.6
OCC[C@@H]1C[C@@H](O)[C@H](O)[C@]2(Cc3ccccc3CCO2)O1 | 2.0 | -14.9 | 0.5 | -0.1% | 10.7 | 0.1
CC1=C(C(=O)N(C(C)C)C(C)C)CC(CC(=O)NC(c2ccccc2)c2ccccc2)C(=O)N1CCC1=CCCCC1 (configuration not stated) | -4.3 | · | -2.5 | 15.8% | -8.0 | -0.3
COc1cccc(OCCn2cccc2/C=C2/C(=N)N3OC(C)=CC3=NC2=O)c1 | 4.4 | 9.6 | -6.2 | -0.4% | 5.8 | 0.9
COc1ccc(NC(C)C(=O)N/N=C/c2ccccc2OCc2ccc(Br)cc2)cc1 (configuration not stated) | -19.9 | 5.7 | -1.9 | 1.3% | ? | -0.7
COc1ccccc1NC(=O)Cn1cnc2c(oc3ccccc32)c1=O | -0.6 | 7.4 | -5.5 | 0.1% | -6.2 | -1.0
COc1ccc(-c2nc3ccc(Br)cn3c2Cc2cccc(F)c2)cc1OC | -1.2 | -3.9 | -5.7 | 0.5% | -10.6 | 0.0
Cn1c(Oc2ccc(F)cc2F)c(C=O)c2ccccc21 | 13.6 | 9.2 | 0.5 | -0.8% | 4.3 | -0.2
COc1cc2[nH]c(=S)n(N(C(C)=O)C(C)=O)c(=O)c2cc1OC | 5.8 | -9.0 | -0.2 | 7.2%[38.3 µM] | -0.7 | 0.3
N#Cc1c(-c2ccccc2)nc(N2CCN(Cc3ccccc3)CC2)[nH]c1=O | 0.0 | -1.0 | -1.3 | -1.3% | 2.1 | 1.8
NS(=O)(=O)c1ccc(CNC(=O)c2cc(-c3ccccc3)nc3ccccc23)cc1 | 10.7 | 3.4 | 1.6 | 12.9% | -4.2 | 0.5
O=C(Nc1ccc2ncccc2c1)c1ccccc1Cl | · | 4.0 | -3.3 | 1.2% | 10.6 | 0.1
CC(C)(C)NC(=O)CSc1nnc(Cc2ccc3c(c2)OCO3)n1C1CCCCC1 | 2.8 | 7.5 | -4.7 | 3.0%[38.3 µM] | 0.4 | -0.6
COc1ccccc1N1CCN(C(=S)Nc2cccc(C)c2)CC1 | -5.2 | -7.0 | -3.3 | 4.6% | -6.8 | -0.2
O=C(Nc1ccc([N+](=O)[O-])cc1)C1(c2ccccc2)CCOCC1 | 0.1 | 9.6 | -1.1 | -0.8% | -3.8 | 0.1
COCCN(C(=O)C1CCN(C(=O)c2ccccc2C)CC1)c1c(N)n(CC(C)C)c(=O)[nH]c1=O | 7.1 | -15.2 | 0.2 | -2.6% | 12.7 | -0.7
CCNC(=O)C1(C)CCCN(C(=O)c2cccc(C)c2C)C1 (configuration not stated) | 8.0 | · | -3.4 | 0.4% | 1.4 | -0.8
COc1ccc(NC(=O)NCCN2CCCCC2)cc1 | · | 19.7 | -5.0 | -0.4% | 5.1 | 0.0
Cc1ccc(N2C(=O)Nc3ccccc3S2(=O)=O)cc1Cl | 0.8 | -2.9 | 1.6 | 0.6% | -1.5 | -1.2
CCOC(=O)C1C(=O)CC(C)(O)C(C(=O)OCC)C1c1cccc(OC(F)(F)C(F)F)c1 (configuration not stated) | 2.7 | 7.6 | -0.6 | -2.2% | 3.0 | 1.3
COc1ccc(NC(=O)CC2C(=O)N(c3ccc(F)cc3)C(=O)N2Cc2ccco2)cc1 (configuration not stated) | · | 5.8 | · | 0.4% | · | 0.4
Cc1nn(Cc2nc(-c3cccs3)no2)c(C)c1Br | 12.3 | 14.1 | 4.4 | 1.1% | 3.8 | 1.4
Cc1cc(=O)[nH]c(SCC(=O)N2CCCC2)n1 | 0.5 | 3.8 | -5.8 | 0.2% | 1.9 | 0.3
CCN(C(=O)COC(=O)c1cc2ccccc2cc1O)C1CCS(=O)(=O)C1 (configuration not stated) | 7.4 | -3.0 | -0.1 | -1.8% | 0.6 | -0.9
COc1ccc2c(CC(=O)Nc3ccc(C)cc3)coc2c1 | · | 16.1 | · | 1.5% | · | 0.1
COCCNC(=S)N(CCc1c(C)[nH]c2ccc(OC)cc12)Cc1ccco1 | -16.7 | -9.5 | 4.1 | 0.0% | -10.6 | -0.2
CC(=O)Nc1cc(NC(C)=O)c(N=Nc2ccccc2)cc1C | -15.5 | -2.9 | -5.8 | 0.7% | -13.0 | 4.5
Cc1c(C(=O)N(C)C)sc2c1c(=O)n(-c1ccc(Cl)c(Cl)c1)c(=O)n2Cc1ccc(F)cc1 | · | -16.8 | · | 8.0% | · | 1.3
CCc1nnc2c3ccccc3nc(Nc3ccc(C(C)=O)cc3)n12 | · | -14.8 | · | 10.2% | · | 0.3
CCc1c(O)nc(SCC(=O)Nc2ccc(Br)cc2)n(-c2ccc(C)cc2)c1=O | -8.9 | 1.4 | -5.2 | 1.0% | -6.5 | -0.2
COc1ccccc1CN(C)C(=O)c1cc2ccccc2o1 | 4.0 | -6.6 | -1.3 | -0.5% | 3.1 | 1.3
CNC(=S)N/N=C/c1c(C)c(C(=O)c2ccc(F)cc2)n2ccccc12 | -29.0 | 0.3 | 2.6 | 15.6% | ? | 0.8
Cc1cc(Cn2nc(C(=O)NCC3CC3)cc2-c2ccccc2)on1 | -0.6 | 25.2 | 1.4 | 0.5% | -0.4 | -0.3
O=C(COC(=O)CNC(=O)c1ccccc1F)NC12CC3CC(CC(C3)C1)C2 | 0.3 | -5.5 | -6.8 | -0.9% | 11.8 | 0.3
CCCCSc1nc2c([nH]1)c(=S)n(C)c(=O)n2C | -6.9 | -6.9 | -2.3 | -0.4% | 2.2 | 0.9
CCOC(=O)CC(=O)CSc1nc2ccccc2c(=O)n1CCc1ccc(S(N)(=O)=O)cc1 | · | -12.3 | · | 9.8% | · | 0.3
CC(=O)C1=C(C)N(Cc2ccccc2)C(=O)N[C@H]1c1ccco1 | · | 14.9 | 1.4 | 2.3% | 2.9 | -0.2
Cc1nn(C(=O)c2ccoc2C)c(N)c1-c1ccccc1 | -9.7 | -3.2 | -4.3 | 9.5% | -0.5 | 0.7
O=C(O)c1nccnc1C(=O)Nc1ccc(Cl)cn1 | 3.1 | 22.4 | -4.1 | -0.9% | 7.1 | 0.0
O=C(c1ccc2c(=O)n(-c3ccccc3)c(=S)[nH]c2c1)N1CCN(c2ccccc2)CC1 | 5.0 | -4.2 | -2.2 | 2.1% | -0.7 | 0.1
O=C(Cn1cc2c(n1)CCCC2)NC1CCCCCC1 | 4.0 | 10.2 | -2.3 | 1.6% | 4.8 | 0.1
COc1cc(/C=N\NC(=O)c2nonc2N)c(OC)cc1Br | · | 6.7 | 5.5 | 10.0% | -6.8 | 0.9
CCOc1cc(C(=O)OCc2ccc(C(=O)OC)o2)cc(Br)c1OC | 18.7 | 19.5 | 0.6 | -0.8% | 17.4 | 2.2
O=C(Nc1cc(C(F)(F)F)ccc1N1CCOCC1)c1ccco1 | 0.0 | 3.3 | -1.8 | 4.5%[38.3 µM] | 0.0 | -0.1
Continued:
SMILES | CtBP-E1A inh | TRPML1 inh | D2 agonist | PINK1 modulator | Six1-Eya2 inh | TRPML1 ag
Cc1ccc(NNC2CC(=O)N(c3cccc(Cl)c3)C2=O)cc1 (configuration not stated) | -20.5 | -4.3 | -5.8 | 6.2% | -3.9 | -0.7
Cc1cc(C)c(S(=O)(=O)c2ccccc2C)c(OCCN(C)C)n1 | 2.7 | -16.3 | -3.2 | -1.2% | 1.3 | 1.1
COc1ccc2ccc3c(c2c1)N=CC1(O3)N(C)c2ccccc2C1(C)C (configuration not stated) | 4.2 | 4.2 | 13.4 | 9.0%[38.3 µM] | -6.7 | -0.3
Cc1cccc(OCC(=O)Nc2nonc2NC(=O)COc2cccc(C)c2)c1 | -8.6 | -1.7 | -2.5 | 1.0% | 6.2 | 0.1

Arranged by the number under CtBP-E1A inh (low to high): three from the list above
SMILES | CtBP-E1A inh
Cc1ccc(NNC2CC(=O)N(c3cccc(Cl)c3)C2=O)cc1 (configuration not stated) | -20.5
Cc1cc(C)c(S(=O)(=O)c2ccccc2C)c(OCCN(C)C)n1 | 2.7
COc1ccc2ccc3c(c2c1)N=CC1(O3)N(C)c2ccccc2C1(C)C (configuration not stated) | 4.2

Compounds as they come; about 1% have a hit in one of these screens.
